Compound activity as filed in PubChem.
ClpP mod – qHTS Assay for Activators of ClpP | Potency, µM (highest dose often 57.5 µM), without a hit: at the top dose activity change, negative = active | purified B. subtilis ClpP, FRET peptide cleavage, 20 min | AID 651965, 2013 | hit rate 1.9% among 340,000 | ATP-dependent Clp protease proteolytic subunit (Bacillus subtilis (strain 168)), P80244; active = well fitted falling curve with a large enough effect; inconclusive = small, poorly fitted or top-dose-only effect; inactive = no such curve, though single readings can be large or run the other way; further: potency means the concentration at half of the fitted maximal effect; the source files actives as falling curves though it sought activators and does not explain the sign; nearly all actives have a fitted effect of over 65% in size; many hits overshoot -100%
Target sequence (P80244 whole entry, looked up): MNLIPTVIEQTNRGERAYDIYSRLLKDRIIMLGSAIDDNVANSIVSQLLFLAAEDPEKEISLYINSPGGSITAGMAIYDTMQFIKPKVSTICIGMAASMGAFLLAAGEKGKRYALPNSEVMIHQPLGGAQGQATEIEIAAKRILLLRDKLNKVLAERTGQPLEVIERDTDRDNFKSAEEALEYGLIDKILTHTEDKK
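Buffer: 100 mM Tris/HCl pH8, 100 mM KCl, 0.05% low protease BSA, 2.5% glycerol, 0.01% Tween-20. ClpP 10 microg/mL final; 20 min RT; delta FRET normalized to ADEP and DMSO controls.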
D2 PAM – Beta-Arrestin HTS for Positive Allosteric Modulators of the Human D2 Dopamine Receptor: Potentiators; DiscoveRx D2 beta-arrestin cells, luminescence, 90 min; 100% = 57 uM dopamine signal; potentiation, % (test concentration not listed); hit rate 0.23% among 360,000; active = potentiation of 50% or more; inconclusive = 30% to 50%; inactive = 30% or less;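 further: compound concentration not given in the record; tested on top of an EC20 dose of dopamine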
Target sequence (P14416 whole entry, looked up): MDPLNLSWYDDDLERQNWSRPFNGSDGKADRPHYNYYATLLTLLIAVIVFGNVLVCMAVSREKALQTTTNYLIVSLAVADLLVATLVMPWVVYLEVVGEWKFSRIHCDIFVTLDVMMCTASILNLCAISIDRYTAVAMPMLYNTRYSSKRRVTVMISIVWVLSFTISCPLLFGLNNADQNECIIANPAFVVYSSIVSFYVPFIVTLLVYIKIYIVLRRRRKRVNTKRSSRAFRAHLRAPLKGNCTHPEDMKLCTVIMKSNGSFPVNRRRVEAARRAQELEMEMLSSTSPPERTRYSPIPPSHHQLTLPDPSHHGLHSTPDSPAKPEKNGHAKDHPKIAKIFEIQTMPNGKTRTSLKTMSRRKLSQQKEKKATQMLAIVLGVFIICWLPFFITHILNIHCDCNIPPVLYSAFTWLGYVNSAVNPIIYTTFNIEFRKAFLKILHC
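PathHunter D2 cells, attached overnight at 37 deg C, received compound in DMSO plus dopamine at EC20 (50 nM final) for 90 min at 37 deg C. Beta-arrestin recruitment was read as luminescence after 1 h with detection reagent at ambient temperature.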
Menin MLL FP FL – qHTS Assay for Inhibitors Targeting the Menin-MLL Interaction in MLL Related Leukemias: Competition With Fluorescein Labeled MLL-derived Peptide | Fluorescence polarization, fluorescein-MLL peptide displacement from menin | FP activity change, % at 61.4 µM | 290,000 tested, under 10 active | AID 1766, 2009; inconclusive = falling polarisation curve, or a change in total fluorescence; inactive = total fluorescence flat and polarisation flat or rising; no compound was filed as active; the % refers to the polarisation; negative = inhibition;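 further: % of control where 0% means no effect; inhibitors lower the polarisation; unlabelled MLL peptide was the positive control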
TRPV1 PAM – HTS Assay for Compounds that Act as Potentiators of the Vanilloid Receptor 1. Transient receptor potential cation channel subfamily V member 1 (Homo sapiens), Q8NER1. TRPV1-expressing cells, Fluo-8 calcium influx, capsaicin EC20 potentiation; host cell line not named in the record; control for the full effect not named in the record. potentiation, % at 8.33 µM. hit rate 0.02% among 320,000. AID 540277, 2011; active means potentiation above 80%; inconclusive means 30% to 80%; inactive means below 30%; further: 0% is about no effect
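Cells expressing TRPV1 were dye-loaded with Fluo-8 and read kinetically: 10 s baseline, 3 min after compound (agonist portion), then 2 min after EC20 capsaicin (allosteric enhancer portion). Calcium-bound dye fluorescence at 480/520 nm.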
gsp agonist – qHTS for Agonist of gsp, the Etiologic Mutation Responsible for Fibrous Dysplasia/McCune-Albright Syndrome: qHTS. Potency, µM (highest dose often 76.9 µM), for the others: at the top dose activation (cAMP increase), most hits filed as activators. gsp mutant cells, cAMP HTRF, 30 min; control for the full effect not named in the record. hit rate 0.13% among 340,000; active = well fitted activation curve with a large enough effect; inconclusive = small, poorly fitted or top-dose-only effect, or another doubt; inactive = no such curve, though single readings can be large or run the other way; cell line not stated here;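 further: phosphodiesterase inhibitor Ro 20-1724 added with compounds to block cAMP breakdown; potency means the concentration at half of the fitted maximal effect; nearly all actives have a fitted effect of over 60% in size; about a fifth of the inactives were tested at one dose only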
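Cells in DMEM/10% FBS with G418 were pretreated with compounds in DMSO plus […] (300 uM stock) for 30 min at 37C. cAMP was measured by HTRF (cAMP-d2 plus anti-cAMP antibody-K) after 30 min at room temperature.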
gsp antagonist – qHTS for Antagonists of gsp, the Etiologic Mutation Responsible for Fibrous Dysplasia/McCune-Albright Syndrome: qHTS; gsp-mutant cells, cAMP HTRF, 30 min; control for the full effect not named in the record; Potency, µM (titrated, usually from 76.9 µM), without a hit: top-dose activity change, negative = inhibition, usual class: inhibitors; hit rate 0.4% among 340,000; AID 624288, 2012; active = falling curve of any shape with a large fitted effect; inconclusive = falling curve, mostly with a smaller effect; inactive = flat or rising curve; cell line not stated here;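 further: intracellular cAMP measured with PDE inhibitor Ro 20-1724 present during compound exposure; potency means the concentration at half of the fitted maximal effect; on the % scale 0 is the no-effect control and ±100 the full control effect; nearly all actives have a fitted effect of over 65% in size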
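HTRF cAMP read-out (cAMP-d2 plus anti-cAMP antibody-K in lysis buffer, 30 min RT). Before lysis, cells are exposed to compounds with […] for 30 min at 37C in DPBS containing Ca/Mg, BSA and Tween 20.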
Sfp PPTase inh – qHTS Assay for Inhibitors of Bacillus subtilis Sfp phosphopantetheinyl transferase (PPTase); 4'-phosphopantetheinyl transferase ffp (Bacillus subtilis), Q9F4F7; Biochemical Sfp PPTase activity, qHTS; Potency, µM, for the others: max response, negative = inhibition, most hits filed as inhibitors; hit rate 3.5% among 310,000; active means well fitted inhibition curve with a large enough effect; inconclusive means small, poorly fitted or top-dose-only effect, or another doubt; inactive means no such curve, though single readings can be large or run the other way;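 further: the enzyme is Sfp with the accession as filed and its product quenches rhodamine fluorescence; potency means the concentration at half of the fitted maximal effect; 0% = enzyme reaction without inhibitor and -100% = no enzyme wells; top concentration of the series not given in the record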
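After 15 min at room temperature with compound, 15 nM Sfp received 5 uM rhodamine-CoA plus 12.5 uM BHQ-2-ybbR (50 mM Hepes pH 7.6, 10 mM MgCl2). Rate came from the fluorescence difference over 30 min, ex 525/em 598 nm.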
An asterisk follows results filed as active; ? = inconclusive; / = no result given; & = joins results of further samples; [ ] = another dose, or the depositor's remark.

cpd	structure	ClpP mod	D2 PAM	Menin MLL FP FL	TRPV1 PAM	gsp agonist	gsp antagonist	Sfp PPTase inh
1	COc1ccc(NC(=O)COC(=O)CCc2cc(OC)c(OC)c(OC)c2)c([N+](=O)[O-])c1	/	-3	-10	-5	0%	-4%	25%
2	CC(=O)c1ccc(C(=O)N2CCCC(CNC(=O)c3ccccc3Cl)C2)cc1 (stereo unspecified)	0.6%	7	0.1	16	-17%[15.4 µM]	8%	7%
3	CCN1CCN(c2oc(-c3ccco3)nc2C#N)CC1	-4.7%	-12	0.3	11	-11%[15.4 µM]	1%	9%
4	COCCCNC(=O)c1ccc2c(c1)ncn2-c1ccccc1OC	-1.1%	-14	-2.1	2	5%	2%	-30%
5	CCOC(=O)C(=CNc1nc(-c2ccc3ccccc3c2)cs1)C(=O)OCC	/	2	12	3	?	-2%	1%
6	CNC(=O)CC1C(=O)N(C)C(=S)N1NC(=O)c1ccc(Cl)cc1 (stereo unspecified)	-1.5%	-4	2.9	13	0%	11%	11%
7	Oc1c(/C=C/C=C/C=Nc2ccccc2)sc(=S)n1Cc1ccccc1	0.7%	-8	?	-3	29%	-1%	?
8	O=C(NCC1CCCCC1)c1cccc(S(=O)(=O)NCc2cccnc2)c1	-0.1%	-15	-2.6	14	6%[15.4 µM]	-11%	16%
9	CCn1cc(S(=O)(=O)c2ccc(C)cc2)[nH]c1=O	/	-4	0.4	3	-2%[15.4 µM]	2%	2%
10	COc1ccc(/C(C)=N/NC(=O)c2ccncc2)cc1	-0.3%	5	1.5	22	0%	9%	12%
11	Cn1c(=O)c2c(ncn2CC(=O)N2CCN(c3ccccc3)CC2)n(C)c1=O	1.8%	-20	5.1	-25	?	6%	20%
12	Cc1ccc(N/C(N)=N/c2nc(C)cc(C)n2)cc1	-1.2%	-27	-1.4	-5	-1%	1%	8%
13	O=C(NCCc1ccc(Cl)cc1)c1ccc(CS(=O)Cc2ccc(Cl)cc2)o1 (stereo unspecified)	-1.7%	-13	-3.5	-18	-38%[inhibitor]	-10%	7%
14	COc1ccc(-n2nnnc2/C=C\Nc2ccccc2C(=O)c2ccccc2)cc1	2.8%	7	3.8	8	-4%	1%	9%
15	COc1ccccc1NC(=O)CCN1CCN(CCC(=O)Nc2ccccc2OC)CC1	/	/	0.6	2	/	/	10%
16	Cc1ccc(C)c(OCC(=O)Nc2ccccc2N2CCCC2)c1	-2.0%	-14	-7.4	-10	-18%	-12%	-2%
17	CC(=O)N1CCN(c2ccc([N+](=O)[O-])cc2C#N)CC1	/	-1	-7.7	9	-5%	-3%	3%
18	COc1ccc([C@H]2C[C@H](n3cc(COC(=O)c4ccccc4)nn3)[C@@H](O)CN2C(=O)C2CCCCC2)cc1	-3.0%	-1	/	/	-86%[inhibitor]	/	/
19	CCn1ccnc1C(O)c1cccc(OC)c1OC (stereo unspecified)	-0.2%	-8	3.7	-9	-1%	7%	-5%
20	O=C(/C=C/c1ccc(-c2ccccc2)cc1)NCc1cccnc1	/	-10	-4.0	15	-53%[inhibitor]	2%	5%
21	Cc1ccc(-c2nnc(Nc3ccc(CC(N)=O)cc3)c3ccccc23)cc1	-0.3%	-30	1.6	-1	-31%[inhibitor]	-23%	-10%
22	COC(=O)c1ccc(COc2cccc3c2OC(C)(C)C3)cc1	-0.8%	-2	/	-16	7%	-14%	-4%
23	CC(C)Sc1nc2c(c(=O)[nH]c(=O)n2C)n1C	1.4%	3	0.6	4	8%	-8%	-4%
24	CCOc1ccc(Br)cc1C1=CC(=O)C[C@H](c2ccc(OC)cc2)C1	-0.8%	-2	/	-1	/	14%	/
25	CCCCN1CCNC1=S	/	4	?	6	-34%[inhibitor]	15%	11%
26	CCCCNC(=O)CCCn1c(=O)c2ccccc2n(CC(=O)NCCC2=CCCCC2)c1=O	?	3	-2.6	5	1%	-4%	-14%
27	C=CCN(C(=O)CNC(=O)c1ccco1)C(C(=O)NC1CCCCC1)c1ccc(F)cc1 (stereo unspecified)	1.4%	-8	3.1	25	14%	-12%	11%
28	COc1ccc(CNCc2cccc(Cl)c2)cc1	0.4%	-28	4.7	3	11%	12%	?
29	CCCn1c(=N)n(CC(O)c2ccco2)c2ccccc21 (stereo unspecified)	-1.4%	-8	2.0	-10	17%	3%	8%
30	CCOc1ccc(Cl)cc1S(=O)(=O)N1CCC(C(=O)N2CCCC2)CC1	-7.5%	3	/	4	-12%[15.4 µM]	1%	1%
31	CCn1ccnc1CN1CCCCC1C(=O)Nc1ccc(Oc2cccnc2)cc1 (stereo unspecified)	-3.4%	-3	-1.1	-3	-5%	10%	-20%
32	CCC1Oc2ccc(C)cc2N(CC(=O)N(Cc2cccnc2)Cc2cccc(F)c2)C1=O (stereo unspecified)	0.2%	1	4.9	-22	-2%	-33%	15%
33	N/C(=N\OS(=O)(=O)c1ccc(Cl)cc1)c1ccncc1	0.9%	67*	-1.6	-5	?	4%	10%
34	CCOC(=O)C1CCN(C(=O)COC(=O)c2nn(C)c(=O)c3ccccc23)CC1	-4.2%	9	/	7	6%	0%	/
35	C[C@H](CO)N1C[C@H](C)[C@@H](CN(C)Cc2ccc(F)cc2)Oc2ncc(Br)cc2C1=O	-1.0%	2	/	/	5%	/	/
36	O=C(CSCc1ccc(Br)cc1)Nc1ccccc1C(=O)N1CCOCC1	0.6%	-10	/	/	9%	10%	/
37	COc1nc(Nc2ccc([N+](=O)[O-])cc2)nc(NC2CCCCC2)n1	/	-4	1.6	-65	17%	?	-5%
38	CCC(C)NC(=S)Nc1ccc(F)cc1 (stereo unspecified)	1.6%	-8	1.4	-9	5%	1%	-2%
39	COc1ccc(S(=O)(=O)N2CCCN(CCC(=O)Nc3cccc(C(F)(F)F)c3)CC2)cc1	0.3%	-19	6.2	/	-22%	9%	6%
40	COc1cc2[nH]c(=O)n(Cc3ccccc3Cl)c(=O)c2cc1OC	?	-8	0.5	-9	5%	2%	2%
41	CCc1nc(SCC(=O)N2CCC(C)CC2)c2c(=O)n(C)c(=O)n(C)c2n1	-0.3%	3	0.8	5	?	-21%	-27%
42	CN1C(=S)SC(C)(NO)C1(C)C (stereo unspecified)	-5.8%	-7	2.7	-8	6%	9%	56µM*
43	O=S(=O)(Nc1ccncc1)c1ccc(Cl)cc1	-0.1%	1	2.0	-28	6%	2%	8%
44	Cc1ccc(C(=O)N2C(=S)C(c3ccc(F)cc3)=NC23CCN(C)CC3)cc1	-1.6%	-9	3.5	-5	?	0%	?
45	Clc1ccc(-c2csc(N/N=C/c3ccc4c(c3)OCO4)n2)cc1	/	6	0.6	-7	-6%[15.4 µM]	-1%	-21%
46	Cc1cc(C)nc(NC2=N[C@@H]3CCCC[C@H]3N2C(=O)Nc2cc(Cl)cc(Cl)c2)n1	1.3%	4	/	/	23%	4%	/
47	Cc1ccc(C(=O)COC(=O)CNC(=O)c2cccs2)cc1	-1.1%	-1	-0.3	9	23%	11%	0%
48	CN1CC(=O)N(CC(=O)Nc2ccc(OCc3ccccc3)cc2)C1=O	-4.1%	14	/	/	-26%[15.4 µM]	5%	/
49	CCCCCCCCCCn1c2c(c(=N)c3c1CCC3)CCC2	-1.2%	-62	7.4	3	-4%[15.4 µM]	7%	28µM*
50	O=c1c(O[C@H]2O[C@@H](CO)[C@H](O)[C@@H](O)[C@@H]2O)c(-c2ccc(O)cc2)oc2cc(O)cc(O)c12	1.1%	-7	/	1	2%	15%	/
51	O=C(CSc1nnc(-c2ccco2)o1)Nc1ccccc1Cl	-1.2%	2	/	?	-28%	8%	12%
52	CS(=O)(=O)N1CCC(C(=O)NCc2ccc(Cl)cc2)CC1	0.0%	-3	1.7	6	5%	9%	20%
53	CCCS(=O)(=O)N1CCC(C(=O)NCc2ccc3c(c2)OCO3)CC1	1.0%	-16	-6.7	1	-12%	0%	9%
54	Cc1ccc(OCC(=O)NNC(=O)CSc2nnc(-c3ccc(C)cc3)n2C)cc1	0.3%	11	3.3	9	-7%	-15%	10%
55	O=C(/C=C/c1cccs1)N1CCN(Cc2ccc3c(c2)OCO3)CC1	?	-34	6.2	-23	-39%[inhibitor]	0%	5%
56	O=C1CCCC/C1=N\Nc1ccc(C2CCCCC2)cc1	/	/	-0.2	-8	/	/	?
57	Cc1ccc(NC(=O)CSCC(=O)Nc2cc(Cl)ccc2N2CCN(C)CC2)cc1	-2.0%	-35	/	7	0%	1%	/
58	CCN(C(=O)CSc1ncccc1C(=O)Oc1cccc([N+](=O)[O-])c1)c1cccc(C)c1	1.8%	-16	7.8	4	5%	-9%	9%
59	CN(Cc1cn(-c2ccccc2)nc1-c1ccc2c(c1)OCO2)Cc1nccn1C	4.1%	-46	0.1	6	0%	-8%	79µM*
60	CCO[C@@H]1OC(C(=O)NCc2nc3ccccc3[nH]2)=C[C@H](c2ccc(C(F)(F)F)cc2)[C@H]1CCCO	0.6%	-10	-3.4	-5	-3%	-19%	2%

Following part.
cpd	structure	ClpP mod	D2 PAM	Menin MLL FP FL	TRPV1 PAM	gsp agonist	gsp antagonist	Sfp PPTase inh
61	C[C@@H]1NC(=O)[C@@]2(C)[C@@H](c3ccccc3)[C@H]3COc4ccc(Cl)cc4[C@@H]3N2C1=O	0.0%	-7	/	5	/	12%	/
62	C[C@H]1COc2c(C3(N)CC3)c(F)cc3c(=O)c(C(=O)O)cn1c23	/	/	4.8&2.3	-4	/	/	9%&-8%
63	O=C(Cn1cnc2c(cnn2-c2ccc(F)cc2)c1=O)N1CCN(c2ccccc2)CC1	-6.3%	1	9.0	-3	?	2%	9%
64	CCc1ccc(CN(C)Cc2c(C(=O)N3CCOCC3)nc3c(C)cccn23)nc1	-0.4%	-14	/	/	-50%[inhibitor]	/	/
